Bioassay records deposited in PubChem by several laboratories.
T cruzi repl = inhibitors of intracellular T. cruzi growth, primary screen, luminescence, NIH3T3 host cells; T. cruzi beta-gal in NIH3T3, 90 h; inhibition, % (test concentration not listed); 1.4% of 300,000 active; AID 1885, 2009;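 active means mean inhibition across valid replicates above about 55%, limit read from the data; inconclusive means mean below that limit but half or more replicates reach it; inactive means mean below it, under half of replicates reach it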;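 further: signal also drops with host cell toxicity which is not excluded here; 0% = plate median of DMSO wells and 100% = zero luminescence signal; higher percent means less beta-gal luminescence so fewer parasites; stock transfer was 50 nL into about 50 µL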
Ecoli growth = E. coli growth inhibition, primary screen, OD600; AID 1053175, 2014; Escherichia coli growth, 23 h; hits give low values; OD600 absorbance (concentration not given with the values); 0.21% of 330,000 active;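 active means OD600 absorbance below the run mean of sample wells minus 3.6 SD, in any replicate, cut at about 0.56 in these data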;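 further: stock transfer was 300 nL into about 60 µL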
Bfl-1 A1 inh = caspase 3/7 activation in MEF A1-2A-BIM cells, primary screen, A1 inhibitor project, cell-based, luminescence, HTS; Caspase-Glo 3/7 luminescence, 3 h; percent of clofoctol response, vehicle zero; caspase activation, % (no concentration beside the values); 0.066% of 330,000 active; AID 2462, 2010;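 active means over half of replicate activation scores above 10%, or exactly half above 10 with the replicate mean above 10; inconclusive means replicate mean below 10 yet half the replicates above 10; inactive means over half of replicates below 10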;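 further: wells of about 30 µL received 50 nL stock; many hits fall short of the cut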
FGF22 binding = binders of human FGF22 protein, primary screen, FGF22 synaptogenesis inhibitor project, biophysical, thermal shift, single point; Fibroblast growth factor 22 (Homo sapiens), Q9HCT0; recombinant FGF22 thermal shift, SYPRO orange fluorescence; percent of sucrose octasulfate shift, DMSO zero; calls only at 9.99 µM; 1.5% of 340,000 active;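 active means melting point raised past a set limit in the mean and every replicate; inconclusive means no clear call; three in four hits are not shown here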
Target sequence (Q9HCT0 whole entry, looked up): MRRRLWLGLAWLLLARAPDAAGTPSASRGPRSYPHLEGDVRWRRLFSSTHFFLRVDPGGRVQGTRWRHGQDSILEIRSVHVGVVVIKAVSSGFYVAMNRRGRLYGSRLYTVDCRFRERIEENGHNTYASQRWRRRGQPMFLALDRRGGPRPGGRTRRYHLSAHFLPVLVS
rRNA inh HTS = reduced GFP signal of wild-type E. coli, primary screen, bacterial rRNA inhibitor project, GFP/RFP fluorescence, OD600, single point; 1.6% of 350,000 active; GFP signal change (wild-type ribosome), % (concentration not given with the values); E. coli WT GFP vs humanized-ribosome RFP mutants, 24 h; hits give low values; DMSO median 0, no signal -100;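 active means significant combined selectivity score with lowered wild-type GFP, culture density cut under 30%, mutant RFP and density less affected; inactive means any of these conditions unmet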; further: one replicate is shown; some compounds called inactive have numbers as strong as hits
AF4-AF9 inh = inhibitors of AF4 peptide binding to AF9, primary screen, biochemical, AlphaScreen, biotin-AF4 peptide, FLAG-AF9, single point; Protein AF-9 (Homo sapiens), P42568; inhibition, % at 10 µM; 0.47% of 350,000 active; AID 651704, 2012;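 active means every replicate reaching a set inhibition limit, whatever the replicate mean, cut at about 25% in these data; inconclusive means mean inhibition reaches that limit but some replicates miss it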;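 further: 0% = plate neutral control median and 100% = total signal loss; the record names both 10 and 1 µM as test concentration; the first replicate is given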
Target sequence (P42568 whole entry, looked up): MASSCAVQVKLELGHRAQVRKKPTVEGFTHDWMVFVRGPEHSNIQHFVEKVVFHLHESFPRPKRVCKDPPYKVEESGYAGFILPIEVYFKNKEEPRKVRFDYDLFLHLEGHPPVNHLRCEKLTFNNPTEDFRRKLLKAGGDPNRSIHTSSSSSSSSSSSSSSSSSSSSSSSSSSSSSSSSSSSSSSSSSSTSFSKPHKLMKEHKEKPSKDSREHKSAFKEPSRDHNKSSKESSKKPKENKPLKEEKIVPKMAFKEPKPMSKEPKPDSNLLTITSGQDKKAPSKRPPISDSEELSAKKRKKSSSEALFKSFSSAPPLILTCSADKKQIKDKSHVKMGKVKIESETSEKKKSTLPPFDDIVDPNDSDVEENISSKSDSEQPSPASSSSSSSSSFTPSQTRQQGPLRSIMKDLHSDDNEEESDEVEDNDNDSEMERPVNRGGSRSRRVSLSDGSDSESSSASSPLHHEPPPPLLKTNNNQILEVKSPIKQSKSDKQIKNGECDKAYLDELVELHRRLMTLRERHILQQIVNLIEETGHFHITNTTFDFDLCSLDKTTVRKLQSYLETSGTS
UCH37 DUB inh = inhibitors of human UCH37 deubiquitinase, primary screen, biochemical, Ub-AMC cleavage, fluorescence; Ubiquitin carboxyl-terminal hydrolase isozyme L5 (Homo sapiens), Q9Y5K5; purified proteasome/UCH37; 0.33% of 330,000 active; inhibition, % (no concentration beside the values);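 active means mean of two replicates above 20%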;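 further: 0% = compound-free wells with enzyme and 100% = wells lacking proteasome; stock transfer was 100 nL into about 20 µL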
Target sequence (Q9Y5K5 whole entry, looked up): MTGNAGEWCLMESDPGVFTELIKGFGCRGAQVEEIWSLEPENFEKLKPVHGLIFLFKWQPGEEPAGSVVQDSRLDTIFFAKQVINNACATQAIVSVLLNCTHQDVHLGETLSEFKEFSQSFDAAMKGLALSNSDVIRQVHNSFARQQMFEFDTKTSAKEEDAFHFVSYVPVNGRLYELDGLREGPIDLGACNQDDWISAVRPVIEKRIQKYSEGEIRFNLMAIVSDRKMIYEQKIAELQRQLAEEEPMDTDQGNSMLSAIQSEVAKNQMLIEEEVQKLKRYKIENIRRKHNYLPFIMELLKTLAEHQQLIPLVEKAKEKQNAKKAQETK
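assay system = human UCH37 enzyme supplied as purified proteasome complex | amount = proteasome at 0.15 nM in the dispensed enzyme solution | schedule = 30 min compound-proteasome preincubation then 25 min substrate reaction, room temperature | measured by = fluorescence, ex 355 nm, em 460 nm | benchmarks = no-proteasome wells (full inhibition) and compound-free wells (no inhibition)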
Beta apoptosis = inhibitors of cytokine-induced beta cell apoptosis, primary screen, luminescence; INS-1E cytokine-induced death, ATP luminescence, 48 h; percent of positive-control rescue, neutral wells zero; 0.8% of 300,000 active; protection from apoptosis, % (no concentration beside the values);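 active means all replicates at 75% or more, or half of them and the mean; inconclusive means half reach 75% but not the mean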;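 further: 0% = cytokine-treated negative control wells and 100% = positive control rescue; higher means more ATP so stronger rescue from cytokine killing; wells of about 40 µL received 100 nL stock; the first replicate is given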
rRNA inh HTS OD600 = further read-out of rRNA inh HTS, marked with its call; OD600 change, %; measured here: OD600 growth;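 optical density of the mix in the first replicate; 0 = DMSO median and -100 = no signal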
rRNA inh HTS RFP = recorded beside rRNA inh HTS, whose call it bears; RFP signal change, %; measured here: RFP humanized mutant strains;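 first replicate; 0 = DMSO median and -100 = no signal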
An asterisk follows results filed as active; i = inactive; u = inconclusive; x = no result given. Some of the compounds tested; the hit share may differ from the screen's.

SMILES	T cruzi repl	Ecoli growth	Bfl-1 A1 inh	FGF22 binding	rRNA inh HTS	rRNA inh HTS OD600	rRNA inh HTS RFP	AF4-AF9 inh	UCH37 DUB inh	Beta apoptosis
COc1ccc(C)cc1NC(=O)CCNC(=O)Cn1cnc2ccccc2c1=O	-8	0.68	0.2	i	8	1	0.7	1.8	0.6	3
O=c1c(O)c(-c2ccccc2)oc2cc(O)cc(O)c12	x	0.69	x	i	x	x	x	1.1	1.3	x
CC(C)Nc1nnc(SCC(=O)Nc2ccc3c(c2)C(=O)c2ccccc2C3=O)s1	-11	0.69	-3.8	x	x	x	x	x	5.1	1
COc1ccc(S(=O)(=O)N2CCC(N3CCCCC3)CC2)cc1	-5	0.76	0.3	x	x	x	x	x	6.4	-2
S=C(NC1CCCCC1)N1CCn2cccc2C1c1ccncc1 (centres undefined)	-9	0.66	0.6	i	10	10	-0.7	1.4	1.2	-2
O=C(CCN1C(=O)/C(=C\c2cccs2)SC1=S)Nc1ccccn1	-5	0.66	-0.6	i	-1	-1	39	2.4	7.5	-1
O=C(C1CC1)N1CCC(c2nc(-c3ccc(S(=O)(=O)NCC4CCCO4)cc3)no2)CC1 (centres undefined)	-12	0.74	-0.3	i	6	1	-6.9	-4.8	0.7	7
CSCCC(=O)Nc1ccc(C(C)=O)cc1	-10	0.7	-0.7	i	13	-1	1.9	-1.0	0.0	0
[N-]=C=C1C(=O)NC(=O)C([n+]2ccc(-c3ccncc3)cc2)C1c1ccccc1C(F)(F)F (centres undefined)	-12	x	2.2	i	-7	-11	4.6	-0.8	x	-4
CC(=O)Nc1ccc(S(=O)(=O)NNC(=O)C(=O)NNc2ccccn2)cc1	-5	0.67	0.9	i	-2	-3	-0.1	1.5	1.5	-6
Cc1ccc2cc3c(=O)n(C)cc(C=O)c3nc2c1	x	0.68	x	i	12	8	3.0	2.2	-13	x
COc1ccccc1C(=O)NC(=O)COC(=O)c1ncc(Cl)c(Cl)c1Cl	-17	0.69	-0.3	i	-3	1	-3.9	0.9	1.3	-3
CCCN(CCC)C(=S)Nc1cc(C(=O)OC)ccc1C(=O)OC	-16	0.7	0.7	x	x	x	x	x	-0.5	-6
COC(=O)c1cccc(C23CC4(C2)[C@H](CN(Cc2ccc(-c5ccccc5)cc2)[C@@H]4c2ccccc2)C3c2ccc(C(F)(F)F)cc2)c1 (some centres undefined)	5	x	-1.3	x	x	x	x	x	3.0	3
COc1cccc(C(=O)NN/C(C)=C/C(=O)C(F)(F)C(F)(F)C(F)(F)F)c1	-8	x	-0.3	x	x	x	x	x	6.6	23
CC(C)C(C)NC(=O)COc1nc2ccccc2nc1N(C)C1CCCCC1 (centres undefined)	-11	0.66	-0.2	i	x	x	x	-6.8	-237	-3
CCOc1ccc(Cl)cc1CNc1nnnn1CC	-1	0.69	-0.3	i	7	6	0.7	1.9	3.3	x
CCCC[C@@H]1CN=C(N)N1CCCC	-14	x	-0.2	i	5	3	2.2	-23	1.8	-3
Cc1ccc(C(=O)COc2cc(O)c3c(=O)cc(-c4ccccc4)oc3c2)cc1	-8	0.72	-0.1	i	28	18	5.7	1.4	4.9	-5
O=C(COc1ccc([N+](=O)[O-])cc1)NNC(=O)Nc1ccc([N+](=O)[O-])cc1	5	0.59	0.2	i	-19*	-9.6*	5.0*	-0.8	9.9	20
CC1CCN(CC(=O)NCc2ccccc2)CC1	-12	0.69	0.3	x	x	x	x	x	3.5	-6
Cc1ccc(NC(=O)c2cc(S(=O)(=O)N3CCc4ccccc43)cn2C)cc1	10	0.75	-0.4	i	-7	-10	-3.8	-3.6	0.5	6
CCCn1nc(NS(=O)(=O)c2cccc3nonc23)c2cc3cc(C)ccc3nc21	-18	0.65	-0.7	i	17	19	2.8	1.0	4.6	-2
CC(=O)Nc1ccc(N2C(=O)CSC2c2ccccc2[N+](=O)[O-])cc1 (centres undefined)	-14	0.71	0.8	i	0	1	-0.8	3.1	-0.2	-5
O=C(O)CCC(=O)Nc1cccc(-c2nc3ccccc3o2)c1	-2	0.68	-0.1	i	6	5	-1.2	-7.6	2.7	x
O=C(COC(=O)c1ccc(S(=O)(=O)N2CCCC2)cc1)Nc1ccc(Cl)cc1	x	0.68	1.6	i	17	7	-0.9	2.9	-1.3	-2
Cc1nnc2sc(SCC(=O)Nc3ccc(Br)cc3)nn2c1=O	-5	0.71	0.6	i	-24*	-12*	-5.6*	-3.9	0.5	9
CCn1nnnc1SCC(=O)c1ccc(C)cc1C	15	0.69	-0.2	x	x	x	x	x	4.8	-5
O=C(c1ccoc1)N1CCCC(N2CCN(c3cccc(C(F)(F)F)c3)CC2)C1 (centres undefined)	14	0.63	0.2	i	-2	6	1.2	1.5	-0.7	x
NC(=O)C1CC(=O)N(c2ccc(OCc3ccc([N+](=O)[O-])cc3)cc2)C1 (centres undefined)	4	0.64	0.3	i	7	7	-1.6	-4.6	3.0	1

Some of the entries so far, field by field:
> O=C(c1ccoc1)N1CCCC(N2CCN(c3cccc(C(F)(F)F)c3)CC2)C1 (centres undefined)
  T cruzi repl: 14
  Ecoli growth: 0.63
  Bfl-1 A1 inh: 0.2
  FGF22 binding: i
  rRNA inh HTS: -2
  rRNA inh HTS OD600: 6
  rRNA inh HTS RFP: 1.2
  AF4-AF9 inh: 1.5
  UCH37 DUB inh: -0.7
  Beta apoptosis: x

> NC(=O)C1CC(=O)N(c2ccc(OCc3ccc([N+](=O)[O-])cc3)cc2)C1 (centres undefined)
  T cruzi repl: 4
  Ecoli growth: 0.64
  Bfl-1 A1 inh: 0.3
  FGF22 binding: i
  rRNA inh HTS: 7
  rRNA inh HTS OD600: 7
  rRNA inh HTS RFP: -1.6
  AF4-AF9 inh: -4.6
  UCH37 DUB inh: 3.0
  Beta apoptosis: 1

New compounds follow.
SMILES	T cruzi repl	Ecoli growth	Bfl-1 A1 inh	FGF22 binding	rRNA inh HTS	rRNA inh HTS OD600	rRNA inh HTS RFP	AF4-AF9 inh	UCH37 DUB inh	Beta apoptosis
CCc1cc2c(N[C@@H](Cc3ccccc3)C(=O)O)ncnc2s1	-1	0.65	u	i	0	1	-0.8	-1.8	-1.1	-11
N#Cc1ccc(Oc2cccc3cccnc23)c([N+](=O)[O-])c1	16	0.63	-0.2	i	1	6	-1.6	0.7	1.2	1
N=c1c(S(=O)(=O)c2ccc(Cl)cc2)cc2c(=O)n3ccccc3nc2n1CC1CCCO1 (centres undefined)	21	0.7	-0.6	x	x	x	x	x	-59	-1
OCCN1CCN(C(=S)Nc2ccc(SC(F)F)cc2)CC1	1	0.68	-0.2	i	-27	-22	0.1	-0.2	2.4	-5
CC(C)(C)NC(=O)C[C@H]1C[C@H](C(=O)N2CCCCC2)[C@@]2(CCc3ccccc3)c3[nH]c4ccc(Cl)cc4c3CCN2C1=O	x	0.72	x	i	9	4	2.7	-0.1	1.8	x
CCOC(=O)C1(Cc2ccccc2)CCN(C2Cc3ccccc3C2)CC1	36	0.58	-0.5	i	-14	-20	-4.1	1.9	0.9	-3
COc1ccc(OC)c(C2/C(=C(/O)c3cnn(-c4ccccc4)c3C)C(=O)C(=O)N2CCN(C)C)c1 (centres undefined)	-5	0.73	1.1	i	5	1	4.5	-4.1	35*	-1
Cc1noc(C)c1S(=O)(=O)N1CCC(C(=O)Nc2ccc(Br)cc2)CC1	21	0.68	-1.2	i	7	16	-0.6	-3.3	2.6	5
CCN(CC)C(=O)c1sc(NC(=O)c2ccc(C)c([N+](=O)[O-])c2)c(C#N)c1C	2	0.77	0.1	x	x	x	x	x	6.0	65
Cc1[nH]c2ccccc2c1C(=O)C(=O)N1CCN(c2cccc(Cl)c2)CC1	32	0.7	-0.8	i	-2	-31	-12	-5.6	2.3	-9
O=[N+]([O-])c1cccc(/C=N\N=C2c3ccccc3-c3ccccc32)c1O	10	x	-0.4	i	4	5	-1.0	1.0	x	-1
O=C(NNC(=O)C12CC3CC(CC(C3)C1)C2)c1ccncc1	-2	0.66	-0.3	i	2	-11	0.6	-0.9	4.4	-3
CC(=O)SCC(C)C(=O)NCc1ccccc1 (centres undefined)	-6	0.7	0.0	x	x	x	x	x	1.6	-1
O=C(O)c1ccc(N=Cc2c(O)ccc3oc4c(c23)CCCC4)cc1	-4	x	-0.4	i	8	7	19	-5.2	x	-11
Cn1ncc(Cl)c1C(=O)NCc1ccco1	-11	0.7	0.9	i	1	-1	-3.0	-5.8	3.0	-4
COc1cccc(Oc2ccc(C(F)(F)F)cc2NC(=O)c2cccc(F)c2)c1	15	0.73	1.9	x	x	x	x	x	0.7	5
CCOC(=O)c1cc(-c2cccc([N+](=O)[O-])c2)n[nH]1	1	0.71	-0.6	i	7	3	-1.6	1.7	3.6	-6
CC(=O)Nc1ccc(N(CC(=O)NC2CCCCC2)C(=O)Cn2nnc(-c3ccccc3)n2)cc1	4	0.64	0.4	i	5	4	-1.6	0.3	0.7	-6
CN(C)c1ccc(CNC(=O)C2CCC(CNc3c(N4CCCCC4)c(=O)c3=O)CC2)cc1 (centres undefined)	-10	0.66	0.7	i	0	7	-4.8	-0.8	2.2	5
COc1ccc(C2CC(=O)C3=C(C2)Nc2ncnn2C3c2ccccc2C)cc1 (centres undefined)	44	0.67	-1.2	x	x	x	x	x	-2.8	3
CC(=O)c1cn(CCOc2cc(C)ccc2C)c2ccccc12	23	0.7	-0.1	i	10	15	1.4	-3.9	2.9	89*
CCOC(=O)c1ccc(N2C(=O)C(CC(N)=O)N(NC(=O)c3cccc(F)c3)C2=S)cc1 (centres undefined)	2	0.62	0.6	i	-25	-48	-0.3	-3.3	0.1	2
CCCCCc1cc(=O)oc2c(C(CCN3CCN(c4ccccc4)CC3)c3ccc(N(C)C)cc3)c(OC)cc(OC)c12 (centres undefined)	-1	0.72	-0.3	i	15	13	-1.5	x	3.2	4
CCCCOC(=O)Oc1ccc2c(=O)c(Oc3cccc(C)c3)coc2c1	-20	0.66	-0.5	i	9	5	-5.7	-6.9	-3.1	2
C=CCC(NCc1ccco1)c1ccc(OC)cc1OC (centres undefined)	4	0.71	-1.1	x	x	x	x	x	1.1	-3
CC(C)CCN(C(=O)c1csnn1)C(C(=O)NC1CCCCC1)c1ccc(F)cc1 (centres undefined)	3	0.69	0.8	i	1	4	1.9	10.0	1.5	9
C=CCNS(=O)(=O)c1cccc(C(C)=O)c1	-5	0.68	0.0	x	x	x	x	x	1.9	-5
O=C(O[C@@H]1[C@H](Cc2ccccc2)NS(=O)(=O)[C@H]2C[C@@H]3C=C[C@]12O3)c1ccccc1Br	x	x	2.2	i	-19	-21	-16	x	6.0	6
